Assay outcomes as filed in PubChem.
hNpr1 antagonist: antagonists of human natriuretic peptide receptor Npr1. P16066. HEK293 hNpr1 GloSensor cGMP, ANP-stimulated luminescence. Potency, µM (highest dose often 46.3 µM), for the others: at the highest dose activity change, negative = inhibition, usual class: inhibitors. hit rate 1.6% among 76,000. AID 1347048; active = well fitted inhibition curve with a large enough effect; inconclusive = small, poorly fitted or top-dose-only effect; inactive = no such curve, though single readings can be large or run the other way;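 note: nearly all actives have a fitted effect of over 60% in size; nearly all hits also lower the signal before the agonist is added; a reference antagonist and vehicle were the controls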
Target sequence (P16066 whole entry, looked up): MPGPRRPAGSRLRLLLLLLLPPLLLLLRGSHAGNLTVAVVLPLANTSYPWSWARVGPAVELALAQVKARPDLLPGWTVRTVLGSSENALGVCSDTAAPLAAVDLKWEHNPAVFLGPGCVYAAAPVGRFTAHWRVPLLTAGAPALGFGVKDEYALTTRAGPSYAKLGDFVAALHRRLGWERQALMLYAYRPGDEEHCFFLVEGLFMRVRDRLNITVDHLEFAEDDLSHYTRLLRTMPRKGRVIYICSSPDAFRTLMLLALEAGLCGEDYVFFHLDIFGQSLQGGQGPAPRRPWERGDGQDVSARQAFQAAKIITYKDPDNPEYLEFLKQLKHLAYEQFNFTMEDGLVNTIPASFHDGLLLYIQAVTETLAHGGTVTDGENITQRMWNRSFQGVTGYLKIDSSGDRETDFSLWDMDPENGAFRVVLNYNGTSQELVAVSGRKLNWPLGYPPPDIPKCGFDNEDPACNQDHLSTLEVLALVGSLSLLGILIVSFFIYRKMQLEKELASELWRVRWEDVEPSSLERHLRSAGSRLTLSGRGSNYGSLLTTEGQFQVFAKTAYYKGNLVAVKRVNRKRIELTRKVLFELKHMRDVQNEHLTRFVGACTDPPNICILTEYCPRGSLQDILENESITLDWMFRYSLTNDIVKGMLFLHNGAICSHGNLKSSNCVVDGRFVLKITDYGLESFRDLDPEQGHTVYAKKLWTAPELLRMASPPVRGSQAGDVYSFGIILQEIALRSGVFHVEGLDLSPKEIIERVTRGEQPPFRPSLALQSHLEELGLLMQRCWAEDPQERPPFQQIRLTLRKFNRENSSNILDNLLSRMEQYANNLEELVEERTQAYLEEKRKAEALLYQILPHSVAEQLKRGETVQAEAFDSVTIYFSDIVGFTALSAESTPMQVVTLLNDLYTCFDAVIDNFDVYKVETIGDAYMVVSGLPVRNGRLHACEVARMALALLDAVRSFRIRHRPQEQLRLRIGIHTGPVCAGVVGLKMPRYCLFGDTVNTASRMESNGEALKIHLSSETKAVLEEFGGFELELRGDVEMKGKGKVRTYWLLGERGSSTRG
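Compound pre-incubated 30 min at room temperature on GloSensor-loaded HEK293 cells stably carrying hNpr1 and the pGS-40F cGMP biosensor. Stimulation uses hNppA at 0.1 nM final; luminescence is taken at baseline and 20 min post-agonist.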
An asterisk follows results filed as active; ? = inconclusive; [ ] = dose if it differs, or a comment. % is set by controls: 0 for no effect and ±100 for the full control effect; potency is the fitted concentration of half-maximal effect. The list is partial; the hit share may differ from the screen's.

SMILES | hNpr1 antagonist
CCOc1ccc(C(=O)N2CCCC3(C2)NC(=O)N(Cc2cc(C)ccc2C)C3=O)cc1 (centres undefined) | 2%
COc1ccc(-c2cc(N3CCCC(NC(=O)c4cc(OC)cc(OC)c4)C3)n[nH]2)cc1 (centres undefined) | -19%
COCc1ccc2c(c1)c(OC(C)(C)C(=O)N1CCOCC1)nn2Cc1ccccc1 | -4%[70.6 µM]
COc1nc2c(cc1CNC(=O)C1CC(=O)N(C)C1)C(=O)N(C1CCCC1)C2 (centres undefined) | 4%
COc1ccc(C[C@@H]2NC(=O)[C@@H]3C[C@@H](NC(=O)Nc4cccc(SC)c4)CCN3C2=O)cc1 | 7%
C[C@H](C(=O)NCCN1CCOCC1)C1CC[C@@]2(C)Cc3sc(-c4ccccc4)nc3[C@@H](C)[C@@H]2[C@H]1O (some centres undefined) | ?
NC(=O)CN1C(=O)CO[C@H]2CN(CCCc3ccccc3)C[C@H]21 | -19%[70.6 µM]
CN(C)C[C@@H]1CN(C)C[C@H]1NS(=O)(=O)c1ccc2c(c1)CCCC2 | 1%
COc1ccc(C(=O)Nc2ncc(-c3ccc(OC)nc3)c3c2OCC3)cc1 | -11%[70.6 µM]
C[C@@]12CO[C@@H](Cc3ccccc3)O[C@@H]1CC[C@]1(C)C2CC[C@@H](O)[C@H]1CC(=O)NCc1cc(F)cc(F)c1 (some centres undefined) | -15%
COc1ccc(CC(=O)NC2CCN(c3cnn(C)c(=O)c3)CC2)cc1 | -13%
O=C(c1ccccn1)N1CCC(N2C(=O)C(O)C23CCCCC3)CC1 (centres undefined) | 8%
CN1CC2(CCCN(Cc3cccc4nonc34)C2)OC1=O (centres undefined) | 6%
COCCc1noc(-c2nc(-c3ccc(C)cc3)no2)n1 | 1%
CCCN1CCCC2(CCN(C(=O)C(=O)c3cccn3C)C2)C1=O (centres undefined) | 1%
COc1ccc(Cl)cc1C(=O)N1C[C@@H](CO)[C@H](c2ccncc2)C1 | -10%
O=C(c1ccoc1)N1C[C@@H](CO)[C@H](c2ccccn2)C1 | 1%
COc1ccc(OCc2nc(C)c(CCO)c(=O)n2CC(=O)Nc2c(C)cccc2C)cc1 | 3%
COC(=O)c1ccccc1NC(=O)O[C@@H]1CO[C@H]2[C@@H]1OC[C@@H]2Nc1nccc(-c2ccc(N(C)C)cc2)n1 | 3%
CNC(=O)c1cccc(-c2cnc(Nc3ccc(N4CCOCC4)cc3)c3c2CCO3)c1 | -7%[70.6 µM]
Cn1cc(CNC(=O)C[C@@H]2C[C@H]3O[C@H](CNC(=O)N4CCOCC4)[C@@H](O)[C@H]3O2)cn1 | 2%[70.6 µM]
COc1ccc(-n2nc(C3CCCN(C(=O)c4ccccc4Cl)C3)[nH]c2=O)cc1 (centres undefined) | 0%
O=C1NCCCCCCN(S(=O)(=O)c2cccnc2)[C@H]2C[C@H](c3nc(-c4cccnc4)no3)C[C@@H]12 | 0%
CC(=O)c1ccc(NC(=O)O[C@@H]2CO[C@H]3[C@@H]2OC[C@@H]3Nc2nccc(-c3ccco3)n2)cc1 | ?
O=c1cc(C2=CCOCC2)oc2c(-c3cccc4[nH]ccc34)nccc12 | -13%[70.6 µM]
O=C(CCc1ccccc1)N1CCOCC12CCN(Cc1ccccc1)CC2 | -11%[70.6 µM]
c1cn(-c2ccc(-c3nccn3C[C@@H]3CCCO3)cc2)cn1 | 4%
CN1CCC(N2CCN(S(=O)(=O)c3ccc(Cl)cc3)CC2)C1=O (centres undefined) | 0%
CCOc1ccc(C(=O)N2CCCC(n3cc(-c4nc(C5CC5)no4)nn3)C2)cc1 (centres undefined) | -15%
c1ccc2sc([C@H]3CCN(CC4CCCCC4)C3)nc2c1 | -5%[70.6 µM]
NS(=O)(=O)c1ccc(CCNCC2(O)CCNC2)cc1 (centres undefined) | 4%
Cc1ccc(C2Cn3nnc(-c4noc(Cc5cccc(F)c5)n4)c3CO2)cc1 (centres undefined) | 3%
O=C(Cc1ccccc1)N1CCC(N2C(=O)C(OCC3CC3)C23CCCCC3)CC1 (centres undefined) | -6%
COCc1nncn1C1CCN(C(=O)c2ccccc2OC(F)(F)F)CC1 | 2%
COCC1CCN(Cc2cn(-c3ccccc3C)nc2-c2ccc(OC)c(F)c2)CC1 | 0%
Cc1ccc(CN(C)Cc2cccn2C)cc1 | 0%[70.6 µM]
CC(=O)N1CCc2ccc(S(=O)(=O)N3CCCc4ccccc43)cc2C1 | -9%
Cc1cnc(CC2CCN(S(=O)(=O)c3ccc4c(c3)CCC4)CC2)n1CC1CC1 | -19%
CNC(=O)NC[C@H]1CCN(Cc2ccc(OC)c(OC)c2Cl)C[C@H]1N(C)C | 3%
O=C(NC1CCCCCCC1)c1nnn2c1COC(c1ccc(F)cc1)C2 (centres undefined) | ?

Arranged by SMILES length (ascending): part of the list above
SMILES | hNpr1 antagonist
c1cn(-c2ccc(-c3nccn3C[C@@H]3CCCO3)cc2)cn1 | 4%
COCc1nncn1C1CCN(C(=O)c2ccccc2OC(F)(F)F)CC1 | 2%
CN1CCC(N2CCN(S(=O)(=O)c3ccc(Cl)cc3)CC2)C1=O (centres undefined) | 0%

Further structures follow:
SMILES | hNpr1 antagonist
CCC1=C(C(=O)OC)C(c2ccc(OC)cc2OC)N2C(CC(=O)N3CCOCC3)=CSC2=N1 (centres undefined) | -15%
O=C(NCCCN1CCOCC1)C1CN(S(=O)(=O)c2ccccc2)CC12CCCCC2 (centres undefined) | 2%
Cc1cccc(OCC(=O)N2C[C@@H](CO)[C@H](c3ccncc3)C2)c1 | -2%
COc1nc2nc(CCc3ccccc3)n(C)c2cc1-c1ccnn1C | -30%[70.6 µM]
O=C(Cc1cccc(F)c1)N1CC(F)(F)C[C@H]1c1nc(C2CC2)no1 | 1%
O=C(Nc1ccc(Cl)cc1)c1nc2c(o1)CCN(Cc1ccsc1)CC2 | 8.9µM*
COc1ccccc1-c1nc(C(=O)NCc2ccc3c(c2)OCO3)n2ccccc12 | 0%
COCc1cc(=O)n(CC(=O)Nc2cc(C)ccc2OC)c(N2CCOCC2)n1 | -4%
CCN(CC)[C@H]1C[C@@H](Cc2cc(CO)on2)C1(C)C | 2%[70.6 µM]
O=C(c1cnc2c(c1)N(Cc1ccccc1)CCC2)N1CC[S+](=O)([O-])CC1 | -6%[70.6 µM]
COc1ccc(-c2nc(C(=O)NC3CC3)n3ccccc23)cc1 | 3%[70.6 µM]
CC(=O)c1cccc(NC(=O)O[C@@H]2CO[C@H]3[C@@H]2OC[C@@H]3Nc2nccc(-c3cccc(F)c3)n2)c1 | ?
O=C(Nc1ccc2c(N3CCCC3)ncnc2c1)c1cccc(F)c1 | -3%
CC(C)C1CN(C(=O)c2nccn2C)CCC(=O)N1Cc1ccc(F)cc1 (centres undefined) | 3%
N#Cc1ccc(CN2CCC3(CC2)CN(c2ccncn2)CC3CO)cc1 (centres undefined) | -21%
CCCC(C)N1CC2(CCN(C(=O)c3cc(Cl)ccc3C)CC2)OC1=O (centres undefined) | 2%
COCCN(C)C[C@@H]1CN(C(=O)c2sccc2Cl)C[C@@H]1CO | -3%
CC(C)N1C(=O)C(CC(=O)N2CCCC2)=C2CCCCC21 (centres undefined) | 2%
FC(F)(F)Oc1ccc(-c2cnc([C@@H]3COCCN3Cc3ccncc3)[nH]2)cc1 | 2%[70.6 µM]
CC(C)CCN1CCC(C2CCN(Cc3cccnc3)CC2)C1 (centres undefined) | -4%
COCCCNC(=O)N1CCCCCCNC(=O)[C@@H]2C[C@@H](c3nc(-c4cccnc4)no3)C[C@@H]21 | 1%
COCc1nc(C2CCCN(C(=O)c3ccc(C)s3)C2)no1 (centres undefined) | 0%
Cc1cc(C)c(CNC(=O)c2cc(Nc3ccccc3)cc3ncn(C)c23)c(=O)[nH]1 | 2%[70.6 µM]
Cc1ccc(NC(=O)C2CC(=O)Nc3ncnn32)c(C)c1 (centres undefined) | 2%
COCCN1CCC(CN(CC2CCCO2)C(=O)c2cccc(C#CC(C)(C)O)c2)CC1 (centres undefined) | -11%
Cn1cc(-c2ccncc2)cc1C(=O)NCc1ccc(Cl)cc1 | -14%
CN1CCC(Oc2ncccc2C(=O)O)CC1 | -2%
COc1cc(Cl)ccc1C(=O)NCc1c(C)ncc2c1CCNC2 | 0%
O=C(C1CCCCC1)N1CC2CC(C1)[C@H]1CCCC(=O)N1C2 (some centres undefined) | 6%
CCOC(=O)c1ccc(NC(=O)N2Cc3[nH]cnc3C[C@H]2c2nc(-c3ccc(OC(F)(F)F)cc3)no2)cc1 | -16%
O=C1CC2CCCC(C1)N2C(=O)c1ccncc1 | 3%[70.6 µM]
CCN1C(=O)CCC2(C(=O)NCCc3c[nH]c4ccc(OC)cc34)CCCC=C12 (centres undefined) | -1%
COc1cccc(S(=O)(=O)N2CC(n3cc(C(=O)NCc4ccncc4)nn3)C2)c1 | 8%
CCCOc1cc(C)c2c(c1C)C[C@H]([C@H](C)C(=O)NCCN1CCOCC1)CC2 | 0%[70.6 µM]
COc1cc(-c2nccc3c(=O)cc(N4CCOCC4)oc23)ccn1 | 5%[70.6 µM]
COC(=O)[C@H]1CN(C(=O)NC(C)C)CCN1C(=O)CSC | 1%[70.6 µM]
O=C(c1cccc(OC(F)(F)F)c1)N1CCN(c2cc(-c3cccs3)[nH]n2)CC1 | -25%
CCOCC(=O)N1CC2CC(C1)[C@H]1CCCC(=O)N1C2 (some centres undefined) | -1%
COCCN1CCC(N2CCN(S(=O)(=O)c3ccc(C)c(F)c3)CC2)C1=O (centres undefined) | 4%
O=C(O)CC1(CC(=O)N2CCN3C(=O)c4cc(-c5ccsc5)ccc4NC(=O)[C@@H]3C2)CCCC1 | -3%
CCCCc1cc(C[C@H]2CNCC[C@H]2CC(=O)N(C)Cc2ccccc2)no1 | -4%[70.6 µM]
CN1CCCCC(CC(=O)NCc2ccccc2)C1=O (centres undefined) | 8%
CC(C)Cn1nc2n(c1=O)CCN(S(=O)(=O)c1cccc3cccnc13)CC2 | 2%
CC(C)[C@@H](NC(=O)[C@@H]1C[C@@H](NC(=O)Cc2cccs2)CCN1C(=O)CCC(=O)O)C(N)=O | 1%
COc1cc(Cl)ccc1OCc1nnc(C(=O)N2CCC[C@@H]2c2cccc(F)c2)n1-c1ccccc1 | -1%
CCCC(=O)N1C2CCCC1CC(=O)C2 | 0%[70.6 µM]
CS(=O)(=O)N(C1CCOCC1)C1CN(C(=O)c2n[nH]c3ccccc23)C1 | 3%
O=C1CCN(C(=O)[C@@H]2CCCN2C(=O)C2CCCCC2)CCCCCCN1 | -3%
COc1ccc(CN2CC3(CCN(C(=O)Cc4cccc(F)c4)CC3)C2=O)cc1 | -4%
COc1ccc2c(ccn2CCNC(=O)C2CC(=O)N(c3n[nH]c4ccccc34)C2)c1 (centres undefined) | 1%
CCOc1ccccc1CN1CCC2(CCN(C(=O)c3cccc(OC)c3)CC2)Oc2ccccc21 | 13%
COc1cccc(CN2CCC(Oc3ccccc3-c3nc(-c4ccncc4)no3)C2)c1 (centres undefined) | ?
O=C(CC1C(=O)NCCN1CC(c1ccccc1)c1ccccc1)NCc1ccon1 (centres undefined) | 4%
O=C1NCCN2CC3(CCN(S(=O)(=O)c4cccc(F)c4)CC3)CC12 (centres undefined) | 6%
COc1cccc([S+](=O)([O-])N2CCC3(C2)NC(=O)c2ccccc2O3)c1 (centres undefined) | -19%
Cc1cc(C)n(Cc2ccc(C(=O)N3CC[C@H](CO)[C@H](O)C3)cc2)n1 | 2%
Cc1ccccc1CNC(=O)C1(c2ccc(NS(C)(=O)=O)cc2)CCCCC1 | -1%
COc1cccc(CCC(=O)N2C[C@@H]3CC[C@H](C2)N(CC2CCC2)C3=O)c1 | -1%
O=C(CCc1ccccc1)C(=O)N1CCc2[nH]nc(-c3ccccc3F)c2C1 | 0%
COc1ccccc1CN(C)C1CCOc2ccccc21 (centres undefined) | 10%[70.6 µM]

Remaining list, next part.
SMILES | hNpr1 antagonist
CCn1nccc1C(=O)N1CC(c2nnc(C(C)C)o2)C2(CCOCC2)C1 (centres undefined) | 4%
Cc1noc(-c2ccc3c(c2)OCO3)c1C(=O)NCCCc1ccccc1 | -5%
COc1ccc(C(=O)N2CCC(C(=O)N3CCCCCCNC(=O)CC3)CC2)cc1 | 4%
O=C(COc1ccccc1)N1CC[C@H]2CC(=O)N(c3ccccc3)CC[C@H]2C1 | -3%[70.6 µM]
O=C(Cc1ccsc1)NC1CCc2nnc(C3CC3)n2CC1 (centres undefined) | 8%
COc1ccc2c(c1)CCN=C2C[C@H]1CN(C(=O)N2CCOCC2)CC[C@H]1CC(=O)O | -1%[70.6 µM]
CCNC(=O)N1CCCC(Cc2noc(-c3ccccn3)n2)C1 (centres undefined) | 4%

Among those listed so far, these have an NH in an aromatic ring:
SMILES | hNpr1 antagonist
COc1ccc(-c2cc(N3CCCC(NC(=O)c4cc(OC)cc(OC)c4)C3)n[nH]2)cc1 (centres undefined) | -19%
COc1ccc(-n2nc(C3CCCN(C(=O)c4ccccc4Cl)C3)[nH]c2=O)cc1 (centres undefined) | 0%
O=c1cc(C2=CCOCC2)oc2c(-c3cccc4[nH]ccc34)nccc12 | -13%[70.6 µM]
FC(F)(F)Oc1ccc(-c2cnc([C@@H]3COCCN3Cc3ccncc3)[nH]2)cc1 | 2%[70.6 µM]
Cc1cc(C)c(CNC(=O)c2cc(Nc3ccccc3)cc3ncn(C)c23)c(=O)[nH]1 | 2%[70.6 µM]
CCOC(=O)c1ccc(NC(=O)N2Cc3[nH]cnc3C[C@H]2c2nc(-c3ccc(OC(F)(F)F)cc3)no2)cc1 | -16%
CCN1C(=O)CCC2(C(=O)NCCc3c[nH]c4ccc(OC)cc34)CCCC=C12 (centres undefined) | -1%
O=C(c1cccc(OC(F)(F)F)c1)N1CCN(c2cc(-c3cccs3)[nH]n2)CC1 | -25%
CS(=O)(=O)N(C1CCOCC1)C1CN(C(=O)c2n[nH]c3ccccc23)C1 | 3%
COc1ccc2c(ccn2CCNC(=O)C2CC(=O)N(c3n[nH]c4ccccc34)C2)c1 (centres undefined) | 1%
O=C(CCc1ccccc1)C(=O)N1CCc2[nH]nc(-c3ccccc3F)c2C1 | 0%
